Assay outcomes (PubChem BioAssay)
Rce1 inh – blocks yeast Ras-converting enzyme; Q03530; yeast membranes, quenched prenylated peptide cleavage fluorescence; calls only; 290,000 tested, 0.27% active; AID 2563;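 active = fall in fluorescence gain of 50% or more versus controls, with final raw signal at or below 3038400; inconclusive = same 50% fall but final raw signal above 3038400; inactive = fall in fluorescence gain under 50%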;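 note: plate controls were neutral control wells for no effect and wells lacking membranes for full effect; tested at 10 µM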
MT1-MMP act inh – blocks activation of human MT1-MMP; 360,000 tested, 0.061% active; P50281; AID 651647; GFP/RFP ratio change, % at 20 µM; HT1080 RFP-PRO-GFP cells, GFP/RFP ratio fluorescence, overnight; percent of plate control window, DMSO zero;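 active = GFP/RFP ratio change of at least 30% with cell ATP level not reduced by more than half and red fluorescence within 50% of control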; note: strong numbers were not always called active
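Material: RFP-PRO-GFP reporter HT1080 cells. Dosing: single-point 20 µM compound, 1% DMSO. Controls: DMSO and RFP-L50D-GFP cell wells. Timing: cells overnight before dosing, compound overnight, 37 °C, 5% CO2. Measure: GFP/RFP fluorescence ratio.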
CSC inhib – cancer stem cell inhibition; 300,000 tested, 1.1% active; AID 2717; cancer stem cell-like cells viability, luminescence; inhibition, % at 7.5 µM;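 active = mean at 75% or more and at least half the replicates too; inconclusive = mean and replicates disagree; tested in HMLE shEcad cells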;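 note: 0% = median of negative and 100% = median of positive control wells; the first replicate is given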
eIF4H FP inh – inhibitors of RNA binding by human eIF4H; Q15056; eIF4H fluorescence polarization binding assay; inhibition, % at 35 µM; 290,000 tested, 0.94% active;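 active = 50% or more with normal probe brightness, or confirmed in later tests; inconclusive = above 50% with abnormal brightness, or retests that disagree; inactive = below 50% or failed in later tests; about a fifth of its hits are not listed in these tables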;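 note: calls also rest on retests at 20 µM and on dose response follow-up; 0% = protein and probe with vehicle and 100% = probe without protein; strong numbers were not always called active; many hits fall short of the cut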
PABP FP inh – blocks human PABP binding to poly(A) RNA; 290,000 tested, 1% active; P11940; inhibition, % at 35 µM; fluorescence polarization;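 active = 50% or more with normal probe brightness, or confirmed in later tests; inconclusive = above 50% with abnormal brightness, or retests that disagree; inactive = below 50% or failed in later tests; about a fifth of its hits are not listed in these tables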;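 note: calls also rest on retests at 20 µM and on dose response follow-up; controls were probe without protein and protein plus probe with vehicle; some compounds called inactive have numbers as strong as hits; many hits fall short of the cut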
Target sequence (P11940 whole entry, looked up): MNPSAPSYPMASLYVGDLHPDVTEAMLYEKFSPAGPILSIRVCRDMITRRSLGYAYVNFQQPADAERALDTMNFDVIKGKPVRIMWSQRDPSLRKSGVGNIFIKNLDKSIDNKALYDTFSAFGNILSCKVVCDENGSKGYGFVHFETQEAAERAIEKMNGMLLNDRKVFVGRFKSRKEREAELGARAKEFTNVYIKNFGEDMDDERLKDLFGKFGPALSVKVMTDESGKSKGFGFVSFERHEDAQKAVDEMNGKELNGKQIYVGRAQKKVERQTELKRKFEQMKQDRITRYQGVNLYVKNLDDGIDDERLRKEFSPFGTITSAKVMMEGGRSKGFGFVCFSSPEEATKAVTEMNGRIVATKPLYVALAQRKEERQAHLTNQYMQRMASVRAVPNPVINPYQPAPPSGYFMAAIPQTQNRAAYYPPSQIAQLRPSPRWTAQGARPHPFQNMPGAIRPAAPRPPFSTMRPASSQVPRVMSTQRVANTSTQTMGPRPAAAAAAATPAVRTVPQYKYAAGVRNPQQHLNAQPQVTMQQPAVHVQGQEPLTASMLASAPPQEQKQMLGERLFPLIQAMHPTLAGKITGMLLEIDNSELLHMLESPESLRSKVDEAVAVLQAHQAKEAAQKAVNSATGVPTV
Env fusion inh – HIV envelope-mediated fusion inhibition. 360,000 tested, 1.1% active. HeLa-JRFL Env/CEM21 cell fusion, luciferase. AID 651610. inhibition, % at 12.3 µM;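 active = mean replicate inhibition score of at least 50 and every replicate individually at or above 50; inconclusive = only one of the two criteria met; inactive = mean below 50 and not all replicates reaching 50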;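 note: 0% = plate neutral controls and 100% = maraviroc near 300 nM; one replicate is shown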
UUG fidelity – alters start codon recognition fidelity in yeast; S. cerevisiae UUG-firefly luciferase reporter, luminescence/redox ratio; activity score, % at 18.7 µM; 350,000 tested, 0.13% active; AID 602363;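 active = replicate mean at a twofold rise or more, about +100% in these data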;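 note: firefly luciferase made from a UUG start codon reports start codon fidelity; reporter light over untreated wells divided by growth signal over untreated wells; some hits fall short of that in this replicate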
eIF4H FP inh retest – recorded beside eIF4H FP inh, whose call it bears; inhibition, %; compound at 20 µM; confirmation average;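 mean of two retest wells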
PABP FP inh retest – also measured in PABP FP inh; calls as there; inhibition, %; compound at 20 µM; confirmation repeats;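 mean of two retest wells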
MT1-MMP act inh RFP – further read-out of MT1-MMP act inh, marked with its call; RFP signal change, %; measured here: RFP expression control read;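 0 = vehicle wells; hits needed this value within 50% of zero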
* marks the source's active call; other numbers are inactive results; & = joins results of further samples. This is a subset (hit frequency here may not be typical).

How did CCN(CC)C(=O)n1c(Cc2ccccc2)nc2ccccc21 do in these assays?
MT1-MMP act inh: 0.3; CSC inhib: -13.8; eIF4H FP inh: -10.3; PABP FP inh: 12.6; Env fusion inh: 4.5; UUG fidelity: -8.3; MT1-MMP act inh RFP: -4.7

Results for CCCCC(=O)NC(=S)Nc1ccc(Cl)c(C(=O)O)c1 ?
Rce1 inh: inactive; MT1-MMP act inh: -6.3; CSC inhib: -13.7; eIF4H FP inh: -6.1; PABP FP inh: -2.9; Env fusion inh: -12.6; UUG fidelity: -18.2; MT1-MMP act inh RFP: 0.2

Results for Cc1cccc(/C=N/n2c(COc3ccccc3)n[nH]c2=S)c1 ?
Rce1 inh: inactive; MT1-MMP act inh: -6.7; CSC inhib: -13.1; eIF4H FP inh: -2.2; PABP FP inh: 10.6; Env fusion inh: 1.6; UUG fidelity: -36.2; MT1-MMP act inh RFP: -0.9

Results for CCOC(=O)c1ccc(NC(=O)CSc2ccc(-c3cccnc3)nn2)cc1 ?
Rce1 inh: inactive; MT1-MMP act inh: -5.1; CSC inhib: -1.1; eIF4H FP inh: -5.6; PABP FP inh: 1.0; Env fusion inh: 1.2; UUG fidelity: -9.0; MT1-MMP act inh RFP: -19.8

How did O=C(NC1=C(Nc2ccc(Cl)cc2)C(=O)c2ccccc2C1=O)c1ccccc1 do in these assays?
Rce1 inh: inactive; MT1-MMP act inh: 11.7; CSC inhib: 42.3; eIF4H FP inh: 1.1; PABP FP inh: -8.0; Env fusion inh: -30.9; MT1-MMP act inh RFP: -2.1

How did Clc1cccc(CSc2nnc(-c3cccnc3)n2Cc2ccco2)c1 do in these assays?
Rce1 inh: inactive; MT1-MMP act inh: 2.9; CSC inhib: -21.1; eIF4H FP inh: -1.6; PABP FP inh: -0.7; MT1-MMP act inh RFP: 0.6

Results for Cc1c(CCOC(=O)c2cccc([N+](=O)[O-])c2)sc[n+]1CC(=O)c1ccccc1 ?
Rce1 inh: inactive; MT1-MMP act inh: -4.1; CSC inhib: -6.5; eIF4H FP inh: 3.1; PABP FP inh: -0.4; Env fusion inh: 1.5; MT1-MMP act inh RFP: 1.3

How did CCc1c(O)nc2ccccn2c1=O do in these assays?
Rce1 inh: inactive; MT1-MMP act inh: 3.9; CSC inhib: 1.4; eIF4H FP inh: -17.1; PABP FP inh: 7.2; Env fusion inh: -1.1; UUG fidelity: -10.2; MT1-MMP act inh RFP: 1.6

Results for C=CCc1ccc(OCC(O)COc2ccc(CC=C)cc2OC)c(OC)c1 ?
Rce1 inh: inactive; MT1-MMP act inh: 1.3; CSC inhib: 26.0; eIF4H FP inh: inconclusive; PABP FP inh: 72.1*; UUG fidelity: -9.5; PABP FP inh retest: 123.8*; MT1-MMP act inh RFP: 0.2

What do the screens show for `COCCNC(=O)c1cc(-c2ccccc2C)n(CC2CC(c3cccc([N+](=O)[O-])c3)=NO2)n1` (configuration not stated)?
MT1-MMP act inh: -0.2; Env fusion inh: 24.5; UUG fidelity: -18.6; MT1-MMP act inh RFP: 0.4

What do the screens show for `CCOC(=O)C1=CCN(S(=O)(=O)c2ccc(C)cc2)[C@H]1c1ccccc1Cl`?
MT1-MMP act inh: -1.3; Env fusion inh: 22.6; UUG fidelity: -6.4; MT1-MMP act inh RFP: -8.5

How did COc1cc(/C=C(\NC(C)=O)C(=O)Nc2ccccc2C)ccc1OC(C)=O do in these assays?
Rce1 inh: inactive; MT1-MMP act inh: 0.5; CSC inhib: -12.8; eIF4H FP inh: -13.2; PABP FP inh: -3.6; UUG fidelity: -15.0; MT1-MMP act inh RFP: -0.6

What do the screens show for `O=C(CN1CCCCC1)Nc1cccc(Oc2ccccc2)c1`?
Rce1 inh: inactive; MT1-MMP act inh: 7.9; CSC inhib: 4.0; eIF4H FP inh: 0.4; PABP FP inh: -3.3; Env fusion inh: -19.3; UUG fidelity: -14.3; MT1-MMP act inh RFP: 0.6

What do the screens show for `O=C1/C(=C/c2ccccc2Cl)SC(=S)N1CCCC(=O)N(CCO)c1ccccc1`?
Rce1 inh: inactive; MT1-MMP act inh: -1.3; CSC inhib: 26.7; eIF4H FP inh: 10.0; PABP FP inh: 12.6; Env fusion inh: 22.6; UUG fidelity: -35.5; MT1-MMP act inh RFP: -1.2

Results for CCCCNC(=O)c1nc(C2CCN(S(=O)(=O)c3cccc(C(F)(F)F)c3)CC2)oc1-c1cccc(C(F)(F)F)c1 ?
MT1-MMP act inh: -5.3; Env fusion inh: 38.1; UUG fidelity: -21.1; MT1-MMP act inh RFP: -2.0

How did O=C(CSc1nc2ccccc2[nH]1)Nc1ccccc1F do in these assays?
Rce1 inh: inactive; MT1-MMP act inh: -4.6; eIF4H FP inh: -4.1; PABP FP inh: 0.1; UUG fidelity: -17.5; MT1-MMP act inh RFP: -3.2

What do the screens show for `Cc1ccc(OCCOCCn2cnc3ccccc3c2=O)cc1C`?
Rce1 inh: inactive; CSC inhib: -1.8; eIF4H FP inh: 2.7; PABP FP inh: 3.6

How did COc1ccccc1NS(=O)(=O)c1cc(-c2cnc(C3CC3)o2)ccc1C do in these assays?
Rce1 inh: inactive; MT1-MMP act inh: -5.8; CSC inhib: -6.8; eIF4H FP inh: 0.1; PABP FP inh: -7.9; Env fusion inh: 17.9; UUG fidelity: -4.2; MT1-MMP act inh RFP: -10.2

What do the screens show for `Cc1cc(C(=O)NC2CCCN(Cc3ccc(Cl)cc3)C2)n(C)n1` (configuration not stated)?
Rce1 inh: inactive; MT1-MMP act inh: 3.9; CSC inhib: -5.8; eIF4H FP inh: -6.4; PABP FP inh: -9.5; Env fusion inh: -62.6; UUG fidelity: -5.2; MT1-MMP act inh RFP: -5.5

What do the screens show for `O=C(NCc1ccc(OC(F)(F)F)cc1)c1ccc2c(c1)S(=O)(=O)c1ccccc1C2=O`?
Rce1 inh: inactive; MT1-MMP act inh: 1.6; CSC inhib: 20.1; Env fusion inh: 0.6; UUG fidelity: 0.4; MT1-MMP act inh RFP: -0.9

How did C=CCN(CC=C)C(=O)C1CCN(Cc2ccc(OCc3ccccc3)cc2)CC1 do in these assays?
Rce1 inh: inactive; MT1-MMP act inh: 2.9; CSC inhib: 31.2; eIF4H FP inh: 0.2; PABP FP inh: 10.0; Env fusion inh: 1.0; UUG fidelity: 2.0; MT1-MMP act inh RFP: -5.2

Results for CC1CCCN(C(=O)COC(=O)c2cccc(NS(=O)(=O)c3ccccc3)c2)C1 (configuration not stated) ?
Rce1 inh: inactive; MT1-MMP act inh: 1.3; CSC inhib: 2.4; Env fusion inh: -2.2; UUG fidelity: -1.1; MT1-MMP act inh RFP: -4.3

How did Cc1ccc(C(=O)N/C(=C\c2ccco2)C(=O)NCCc2c[nH]c3ccccc23)cc1 do in these assays?
Rce1 inh: inactive; MT1-MMP act inh: -4.2; CSC inhib: 5.6; eIF4H FP inh: -5.8; PABP FP inh: -5.6; MT1-MMP act inh RFP: 2.1

Results for COc1ccc(/C=N/Nc2nc(C)c([N+](=O)[O-])c(N(C)c3ccccc3)n2)cc1OC ?
Rce1 inh: inactive; MT1-MMP act inh: 6.8; CSC inhib: 7.4; eIF4H FP inh: -8.5; PABP FP inh: -2.9; MT1-MMP act inh RFP: 4.6

What do the screens show for `CCC(=O)Nc1cccc(-c2nc3ccc(C)cc3o2)c1`?
Rce1 inh: inactive; MT1-MMP act inh: 0.4; CSC inhib: 2.7; eIF4H FP inh: -7.9; PABP FP inh: 0.6; Env fusion inh: -57.5; UUG fidelity: -20.8; MT1-MMP act inh RFP: -2.6

What do the screens show for `C[C@H]1CN([C@@H](C)CO)C(=O)CCCn2nncc2CO[C@@H]1CN(C)C(=O)Nc1ccnc(N2CCOCC2)c1`?
MT1-MMP act inh: 5.7; Env fusion inh: 2.3; UUG fidelity: -6.8&3.5; MT1-MMP act inh RFP: 6.7

What do the screens show for `Fc1ccccc1Nc1nc2ccccc2o1`?
Rce1 inh: inactive; MT1-MMP act inh: 0.8; CSC inhib: 30.5; eIF4H FP inh: 7.2; PABP FP inh: 1.7; Env fusion inh: -54.9; UUG fidelity: -9.2; MT1-MMP act inh RFP: 1.0

What do the screens show for `Cc1cccc(NC(=O)CN2CCN(C(=O)C3CCCO3)CC2)c1C` (configuration not stated)?
Rce1 inh: inactive; MT1-MMP act inh: 1.2; CSC inhib: -2.4; eIF4H FP inh: -5.2; PABP FP inh: 6.7; Env fusion inh: 8.4; UUG fidelity: -17.4; MT1-MMP act inh RFP: 4.1

How did COc1ccc(-n2nnnc2-c2nc3ccccc3s2)cc1 do in these assays?
Rce1 inh: inactive; MT1-MMP act inh: 1.1; CSC inhib: 10.3; eIF4H FP inh: -3.4; PABP FP inh: -4.4; Env fusion inh: -91.1; UUG fidelity: -31.5; MT1-MMP act inh RFP: 0.4

Results for CCCCc1ccc(NC(=O)N2CCNC(=O)C2CC(=O)Nc2ccsc2C(=O)OC)cc1 (configuration not stated) ?
Rce1 inh: inactive; CSC inhib: -8.8; eIF4H FP inh: 59.0; PABP FP inh: 39.9; Env fusion inh: 14.9; UUG fidelity: -8.0; eIF4H FP inh retest: -7.7; PABP FP inh retest: 2.4

How did CC(=O)Nc1ccc(OCC[n+]2cccc(C(N)=O)c2)cc1 do in these assays?
Rce1 inh: inactive; MT1-MMP act inh: 2.0; CSC inhib: -8.5; eIF4H FP inh: -3.3; PABP FP inh: 38.3; Env fusion inh: -0.3; UUG fidelity: -10.0; MT1-MMP act inh RFP: 0.9

How did CN1CCN(c2ccc(C(=O)c3ccc(Br)cc3)cc2[N+](=O)[O-])CC1 do in these assays?
Rce1 inh: inactive; MT1-MMP act inh: -3.4; CSC inhib: 53.1; eIF4H FP inh: -1.1; PABP FP inh: 6.4; Env fusion inh: -6.1; MT1-MMP act inh RFP: -9.8

What do the screens show for `CCOc1ccc(C2C3=C(CCCC3=O)N(CC(=O)O)C3=C2C(=O)CCC3)cc1`?
Rce1 inh: inactive; MT1-MMP act inh: 0.0; CSC inhib: 2.6; eIF4H FP inh: -4.4; PABP FP inh: 7.9; Env fusion inh: -16.3; UUG fidelity: -8.8; MT1-MMP act inh RFP: 4.0

How did CCOC(=O)CC(=O)CSc1nc(C)cc(-c2cccnc2)c1C#N do in these assays?
Rce1 inh: inactive; MT1-MMP act inh: 3.1; CSC inhib: -6.8; eIF4H FP inh: inconclusive; PABP FP inh: inconclusive; UUG fidelity: -28.0; MT1-MMP act inh RFP: 4.0

Results for CCc1[nH]c(C(=O)O)c(C)c1C(=O)OC ?
Rce1 inh: inactive; MT1-MMP act inh: 2.4; CSC inhib: -13.8; eIF4H FP inh: -9.1; PABP FP inh: 3.8; Env fusion inh: -35.1; UUG fidelity: -6.5; MT1-MMP act inh RFP: 2.4

What do the screens show for `Nc1ncnc2c1ncn2CCN1CCCCC1`?
Rce1 inh: inactive; MT1-MMP act inh: 9.1; CSC inhib: 8.6; eIF4H FP inh: -2.4; PABP FP inh: -5.0; UUG fidelity: -20.3; MT1-MMP act inh RFP: 7.8

Results for c1ccc(Cc2cc[n+](Cc3ccccc3)cc2)cc1 ?
Rce1 inh: inactive; MT1-MMP act inh: -1.1; CSC inhib: 4.2; eIF4H FP inh: -11.1; PABP FP inh: -4.6; Env fusion inh: 23.0; MT1-MMP act inh RFP: -6.1

How did O=C1OC(c2ccccc2)=CC1=Cc1ccccc1O do in these assays?
MT1-MMP act inh: 6.1; Env fusion inh: -8.8; UUG fidelity: -20.9; MT1-MMP act inh RFP: 7.4
